# Screening data: PubChem BioAssay, PCMD
# Biofilm kill mix – clotrimazole potentiators killing C. albicans biofilm, primary screen, 4-compound mixtures. C. albicans biofilm persisters + clotrimazole, fluorescence viability; primary screen in compound mixtures of four per well. inhibition, % at 7.6 µM. 120,000 tested, 0.02% active;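 active = inhibition above 30.3% in the primary screen of four-compound pools, then above 30% when the compound was retested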;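 note: compounds exposed to preformed 24 h biofilms for 48 h; the number belongs to the whole pool; some results filed as inactive read as strong as hits; inactives centre near 12; 0% = biofilm with clotrimazole alone and 100% = kill control; retested singly at about 60 µM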
#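 Assay system: C. albicans biofilms / Medium: RPMI/MOPS medium, pH 7.0 / Schedule: biofilm formation 24 h, compound exposure 48 h, 37 °C / Measured by: Alamar Blue fluorescence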
# Numbers without * were called inactive. Only part of the results is shown; rates above refer to the full screens.
SMILES	Biofilm kill mix
Nn1c(COc2ccc(Cl)cc2)n[nH]c1=S	8.8
CCn1nc(C)c(CN2CCN(Cc3ccsc3)C(CCO)C2)c1C (stereo unspecified)	24.6
Cc1nc(N)sc1-c1csc(Nc2ncccn2)n1	7.1
CC1C2CC(C/C2=N/NC(=O)c2cccs2)C1(C)C (stereo unspecified)	13.2
NS(=O)(=O)c1ccc(CCNC(=O)/C=C/c2ccccc2[N+](=O)[O-])cc1	9.7
CS(=O)(=O)N1CCN(c2ccc(NC(=S)NC(=O)c3ccc4c(c3)OCO4)cc2)CC1	11.2
O=C(Nc1ccccc1N1CCOCC1)C1CCN(S(=O)(=O)c2ccc(Cl)cc2)CC1	16.5
COc1ccccc1NC(=O)Cn1c(=O)n(CCc2c[nH]c3ccccc23)c(=O)c2cccnc21	5.8
O=C(/C=C/c1ccco1)NC1CCCC1	4.2
Cc1ccccc1C1=N/C(=C/c2cccnc2)C(=O)O1	15.9
COc1ccccc1/C=N/NC(=O)c1ccccc1NS(=O)(=O)c1ccc(C)cc1	22.2
CC1=NN(c2ccc(Cl)cc2)C(=O)C1	9.2
Cc1cccc(NC(=O)Nc2ccc(C)cc2Br)c1	9.0
CCCn1c(N)cc(=O)n(C)c1=O	16.9
COCCN(C(=O)c1ccco1)C(C(=O)NC1CCCC1)c1cccs1 (stereo unspecified)	13.0
C[C@H]1COC2=C1C(=O)C(=O)c1c2ccc2c1CCCC2(C)C	17.5
COc1cc(OC)cc(C(=O)N[C@H](C(=O)OCC(=O)Nc2sccc2C#N)C(C)C)c1	8.7
CCn1c(SCC(=O)NCCc2ccccc2)nnc1C(C)C	19.8
COc1cscc1C(=O)O	17.3
Cc1ccc2nc(SC(C)C(=O)NC3CCCc4ccccc43)[nH]c2c1 (stereo unspecified)	15.4
O=Cc1ccc(O)c(O)c1	9.9
O=C(NNC(=O)C1CCN(S(=O)(=O)c2cccc(Cl)c2)CC1)C1CC1	10.7
CCOc1ccc(Cc2onc3c2C(=O)CCC3)cc1OCC	22.7
C/C(=N\NC(=O)CC#N)c1cc2ccc(O)cc2oc1=O	8.6
CSc1ncc(CN2CCN(C3CCN(C(C)C)CC3)C(CCO)C2)cn1 (stereo unspecified)	34.0
O=C(Cn1cncn1)NCc1cccc(C(F)(F)F)c1	2.8
Cc1ccc(S(=O)(=O)/C(C#N)=C/c2c(N3CCCCC3)nc3ccccn3c2=O)cc1	17.5
O=C(NN1C(=O)C2C(c3ccccc3)C=CC(c3ccccc3)C2C1=O)c1ccncc1 (stereo unspecified)	12.2
NC(=O)C[n+]1cccc(CNC(=O)c2ccc(OC(F)F)cc2)c1	6.5
CC(=O)OCCNc1cc(SC(C)C)c2nonc2c1[N+](=O)[O-]	10.4
O=C(O)COc1ccc(/C=N/O)cc1Br	3.4
COc1ccc(/C(N)=N/OC(=O)Cc2ccc(C)cc2)cc1OC	12.1
COc1ccccc1CC(=O)Nc1ccc2c(c1)CCC2	-5.5
S=C1NC2=C(CCC/C2=C\c2ccc(Cl)cc2)C(c2ccc(Cl)cc2)N1 (stereo unspecified)	-5.2
COC(=O)c1cccnc1-n1c(=O)c2cccnc2n(CC(=O)Nc2ccc(Br)cc2)c1=O	16.7
CCO/N=C/c1ccc(OC)c(Oc2nc(OC)cc(OC)n2)c1	0.9
CN(C)C(=O)c1nc2ccccc2s1	17.0
CCN(CC)Cc1c(C(=O)N2CCc3ccccc3C2)nc2ccc(Cl)cn12	25.0
CCC(C)(C)NC(=S)Nc1ccc(-c2nc3ccc(C)cc3s2)cc1	10.5
Cc1ncsc1C(=O)N1CCCC(CNS(=O)(=O)c2cccs2)C1 (stereo unspecified)	10.5
CC1CCCN(c2ccc3nc4ccccc4c(=O)n3n2)C1 (stereo unspecified)	11.5
N#CCCN(Cc1cccnc1)C(=S)NC1CC2C=CC1C2 (stereo unspecified)	21.2
CN(C)C(/C=C/Nc1ccc(O)cc1)=C(C#N)C#N	7.8
CCN(CC(=O)NC(C)(C)C)C(=O)C(c1ccccc1)c1ccccc1	18.4
COC(=O)/C(=C1/Oc2ccc(C)cc2S1)C(F)(F)F	13.8
CN1CCN(c2oc(Cc3cccc4ccccc34)nc2C#N)CC1	20.9
COc1cccc(CNC(=O)c2nnn(CC(=O)Nc3ccc(C)c(C)c3)c2N)c1	7.9
O=C(NCc1ccc(Cl)cc1)C1CCN(S(=O)(=O)c2ccc(F)cc2)CC1	11.2
CCCCCc1cc(=O)oc2c(C(CCN3CCCC(C)C3)c3ccc4c(c3)OCO4)c(OC)cc(OC)c12 (stereo unspecified)	5.7
CC1=CC(=O)C2=C(C)CC[C@@H]3[C@H](OC(=O)[C@H]3C)[C@@H]12	11.1
CO/N=C(\N)c1ccc([N+](=O)[O-])cc1	16.2
CNS(=O)(=O)c1ccc2c(c1)oc(=O)c1cc(S(=O)(=O)NC)ccc12	15.7
CC1=CC(C)(C)N2C(=O)C(=Nc3ccc(O)cc3)c3cccc1c32	24.7
Cc1c(NC(=O)c2c(N)sc3c2CCCC3)c(=O)n(-c2ccccc2)n1C	4.9
CC(C)(C)c1ccccc1NC(=S)NCc1ccccc1	7.9
O=C(COC(=O)Cc1ccc(Cl)cc1)Nc1cc(S(=O)(=O)N2CCOCC2)ccc1N1CCCC1	18.9
CSc1ccc(/C=N/Nc2nc(C)cc(=O)[nH]2)cc1	9.7
O=C(O)c1ccc(S(=O)(=O)c2ccc3c(c2)C(=O)N(NC(=O)c2ccncc2)C3=O)cc1	17.1
COCCCNC(=O)CN(c1cc(Cl)ccc1OC)S(=O)(=O)c1ccc(C)c([N+](=O)[O-])c1	21.1
CC(=O)Nc1cc(C(=O)OCc2cccc([N+](=O)[O-])c2)ccc1C	6.0

# Reprinted at random: three entries already listed.
SMILES	Biofilm kill mix
CC(C)(C)c1ccccc1NC(=S)NCc1ccccc1	7.9
CN(C)C(=O)c1nc2ccccc2s1	17.0
O=C(NCc1ccc(Cl)cc1)C1CCN(S(=O)(=O)c2ccc(F)cc2)CC1	11.2

# (further entries)
SMILES	Biofilm kill mix
COC(=O)CN1C(=S)N(c2ccc(F)cc2)C(=O)C1CC(=O)Nc1ccc(F)cc1 (stereo unspecified)	14.5
COc1cccc(C2=NOC(C(=O)Nc3cccnc3Cl)C2)c1 (stereo unspecified)	10.8
CCOC(=O)N1CCc2c(sc(N)c2C#N)C1	18.9
CC1Cc2ccccc2N1c1ncnc(N)c1[N+](=O)[O-] (stereo unspecified)	4.8
CCC(C)Nc1nc(N)c([N+](=O)[O-])c(Nc2cc(OC)ccc2OC)n1 (stereo unspecified)	22.4
Cc1ccc(NC(=O)COC(=O)CSC(=S)N2CCOCC2)cc1	16.4
O=C(COC(=O)C(Cc1ccccc1)NC(=O)c1ccc(Cl)cc1)c1ccc(Cl)cc1 (stereo unspecified)	13.5
O=C(CSc1nc2ccccc2[nH]1)Nc1nc(-c2ccc(Br)cc2)cs1	19.2
O=c1cc(-c2ccccc2)oc2ccc(O)cc12	9.5
COc1ccc(CN=C(Nc2ccccc2)SC2CC(=O)N(C)C2=O)cc1 (stereo unspecified)	6.3
O=C(Nc1nc2ccc([N+](=O)[O-])cc2s1)C1CCCO1 (stereo unspecified)	10.4
CN(CCO)C(=O)c1ccc(-c2nn(C)c(=O)c3ccccc23)cc1	0.4
O=C1c2ccccc2S(=O)(=O)N1CC1CC(c2ccc(Cl)cc2)=NO1 (stereo unspecified)	20.1
COc1ccc(-c2nn(-c3ccccc3)cc2C2CC(c3cccs3)=NN2C(=O)CCC(=O)O)cc1 (stereo unspecified)	2.0
Cc1ccc(NC(=O)C2=NNC(=O)CC2)cc1F	21.1
Cc1ccc(C)c(S(=O)(=O)NCCCN2CCOCC2)c1	2.6
CCOC(=O)C1=C(C)NC(=O)NC1/C=C/c1ccccc1OC (stereo unspecified)	13.1
CC(=O)c1ccc(NC(=S)Nc2ccc(Br)c(Cl)c2)cc1	6.2
N#C/C(=C\C=C\c1ccccc1)c1nc(-c2ccc(Cl)cc2)cs1	26.6
COc1cc(C(=O)NCc2nnc(SCC(=O)Nc3nc4ccccc4s3)o2)cc(OC)c1OC	14.9
CC(/C=C/c1ccc2c(c1)OCO2)=N/NC(=O)c1ccncc1	22.6
O=C(O)c1ccc(-n2c(-c3cc(C4CC4)[nH]n3)n[nH]c2=S)cc1	16.4
COc1ccc(NS(=O)(=O)c2ccc3nc(COc4ccc(Cl)c(C)c4)[nH]c3c2)cc1	13.2
CCN1C(=O)C(C(=O)NC(C)c2ccccc2)C2CC1(C)Oc1ccccc12 (stereo unspecified)	11.4
C/C(=N\Nc1ccc([N+](=O)[O-])cc1[N+](=O)[O-])c1cc2c(ccc3ccccc32)oc1=O	3.5
C/C=C(\C)C(=O)Nc1cccc(C2=NOC3(C2)C[C@H](C(N)=O)N(C(=O)C(c2ccccc2)c2ccccc2)C3)c1 (stereo partly specified)	6.8
COc1ccc2ccccc2c1/C=N/NC(=O)CC1(C)OCCCO1	3.8
O=C(O)c1[nH]c2ccccc2c1CC(=O)N1CCN(c2ccccc2)CC1	7.1
O=C(CCC(=O)N1CCN(S(=O)(=O)c2ccc(Cl)cc2)CC1)Nc1ccc2ccccc2c1	6.8
CCOCCCNCC(=O)Nc1ccc(S(=O)(=O)NC(C)CC)cc1 (stereo unspecified)	9.4
COC(=O)c1ccc(NC(=O)COc2ccc([N+](=O)[O-])cc2)cc1	5.4
CSc1nnc([C@H](Cc2c[nH]c3ccccc23)NC(=O)OC(C)(C)C)o1	16.0
CCCCN(C(=O)Cn1nnc2ccccc21)C(C(=O)NCCOC)c1cccs1 (stereo unspecified)	12.0
CCc1c(C)nc2ncnn2c1Nc1ccc(C)c(C)c1	6.0
O=C(Nc1ccc(Br)cc1)c1csc(-c2ccncc2)n1	9.4
Cc1csc2ncc(C(=O)Nc3ccccc3Cl)c(=O)n12	19.1
Cc1ccc(C(=O)NC(C)c2ccc(F)cc2)cc1 (stereo unspecified)	22.1
Fc1cnc(N/N=C/c2ccc(-c3ccc(Br)cc3)o2)nc1N1CCOCC1	7.9
N=C1CCCN1CC(=O)c1cccs1	-0.5
CC(C)c1cc(-c2cc(-c3ccccc3)on2)nc(NC2CCCC2)n1	-3.2
O=C(/C=C/Nc1ccc(Nc2ccccc2)cc1)c1cccs1	13.4
O=C(Nc1cccc(C(F)(F)F)c1)c1cccnc1N1CCOCC1	11.2
Cc1cc(CSC(=N)N)c(CSC(=N)N)cc1C	17.9
CC(C)n1cnnc1SCC(=O)Nc1ccc(Br)cc1F	17.1
COc1ccc(N2CCN(C(=O)/C=C/c3ccco3)CC2)cc1	-8.7
COc1ccc(-n2c(SCC(=O)N3CCc4ccccc43)nnc2-c2c[nH]c3ccccc23)cc1	11.3
CCOC(=O)C1=NNC(C(=O)c2ccc(Cl)cc2)C1c1ccccc1 (stereo unspecified)	20.5
O=C(O)C1Cc2ccccc2CN1C(=O)CSc1nnc2ccccn12 (stereo unspecified)	15.4
O=C(Nc1ccccc1C(F)(F)F)c1ccccc1Br	7.7
O=C(Cn1c(O)c(/C=C2\C=Nc3ccccc32)sc1=O)N1CCOCC1	3.6
OC(CNCc1ccc(Cl)cc1)(c1ccccc1)c1ccc(F)cc1 (stereo unspecified)	16.1
COc1ccc2cc(C3NC(=O)c4ccccc4N3)c(Cl)nc2c1 (stereo unspecified)	12.9
CCCCN(C(=S)Nc1cccc(C)c1C)c1c(N)n(CCC)c(=O)[nH]c1=O	14.5
COc1cccc(N2CCN(C(=O)c3c(C)nn(-c4ccccc4)c3C)CC2)c1	10.3
CSc1ccc(/C=N/NC(=O)c2ccc(O)cc2)cc1	1.6
O=C1COCCOCCOCCOCC(=O)NCCN1	14.8
Cc1[nH]c2ccccc2c1C(C[N+](=O)[O-])c1ccco1 (stereo unspecified)	7.4
COc1ccc(S(=O)(=O)NCC2CCCN(C(=O)CC3CCCC3)C2)cc1 (stereo unspecified)	-4.9
CC1CCCCN1CC(=O)Nc1ccc(N2CCCCCC2)cc1 (stereo unspecified)	18.7
COc1ccc(CCN=C(N)NS(=O)(=O)c2ccc(F)cc2)cc1	-1.6

# Entries shown so far that contain a COOH group, in the order listed:
SMILES	Biofilm kill mix
COc1cscc1C(=O)O	17.3
O=C(O)COc1ccc(/C=N/O)cc1Br	3.4
O=C(O)c1ccc(S(=O)(=O)c2ccc3c(c2)C(=O)N(NC(=O)c2ccncc2)C3=O)cc1	17.1
COc1ccc(-c2nn(-c3ccccc3)cc2C2CC(c3cccs3)=NN2C(=O)CCC(=O)O)cc1 (stereo unspecified)	2.0
O=C(O)c1ccc(-n2c(-c3cc(C4CC4)[nH]n3)n[nH]c2=S)cc1	16.4
O=C(O)c1[nH]c2ccccc2c1CC(=O)N1CCN(c2ccccc2)CC1	7.1
O=C(O)C1Cc2ccccc2CN1C(=O)CSc1nnc2ccccn12 (stereo unspecified)	15.4

# The results go on.
SMILES	Biofilm kill mix
O=C(COC(=O)c1c(Cl)ccc(Cl)c1Cl)NC(=O)NCc1ccccc1	8.4
CSCCC(NC(=O)c1ccc(Cl)cc1)C(=O)OCC(=O)c1ccc[nH]1 (stereo unspecified)	12.3
CC(C)c1nc2sc3c(=O)[nH]cnc3c2c2c1CCCC2	24.3
Cc1ccc2c(c1)N(CCCC(=O)NCCCN1CCCC1=O)C(=O)CO2	11.7
